HIV Env fusion: inhibitors of HIV Env-mediated cell fusion; inhibition, % at 12.3 µM; actives 1.1% (n = 360,000); HeLa-JRFL Env/CEM21 cell fusion, luciferase;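 active = mean replicate inhibition score of at least 50 and every replicate individually at or above 50; inconclusive = only one of the two criteria met; inactive = mean below 50 and not all replicates reaching 50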;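 also: 0% = plate neutral controls and 100% = maraviroc near 300 nM; one replicate is shown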
Rce1 inh: inhibitors of yeast Ras-converting enzyme | Q03530 | yeast membranes, quenched prenylated peptide cleavage fluorescence | calls only | actives 0.27% (n = 290,000) | AID 2563;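 active = fall in fluorescence gain of 50% or more versus controls, with final raw signal at or below 3038400; inconclusive = same 50% fall but final raw signal above 3038400; inactive = fall in fluorescence gain under 50%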;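 also: plate controls were neutral control wells for no effect and wells lacking membranes for full effect; tested at 10 µM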
Target sequence (Q03530 whole entry, looked up): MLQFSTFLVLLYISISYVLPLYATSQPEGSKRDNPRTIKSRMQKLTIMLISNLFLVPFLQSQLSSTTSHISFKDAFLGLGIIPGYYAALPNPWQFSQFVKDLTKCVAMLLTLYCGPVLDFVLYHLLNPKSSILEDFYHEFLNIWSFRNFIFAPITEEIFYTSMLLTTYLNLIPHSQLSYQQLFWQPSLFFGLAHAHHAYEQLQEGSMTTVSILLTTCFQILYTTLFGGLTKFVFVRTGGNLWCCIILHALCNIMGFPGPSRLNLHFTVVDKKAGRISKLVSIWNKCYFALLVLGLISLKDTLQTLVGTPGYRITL
CSC inhib: blocks cancer stem cells. AID 2717. actives 1.1% (n = 300,000). inhibition, % at 7.5 µM. cancer stem cell-like cells viability, luminescence;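 active = mean at 75% or more and at least half the replicates too; inconclusive = mean and replicates disagree; tested in HMLE shEcad cells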;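 also: 0% = median of negative and 100% = median of positive control wells; the first replicate is given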
UUG fidelity: alters start codon recognition fidelity in yeast | actives 0.13% (n = 350,000) | S. cerevisiae UUG-firefly luciferase reporter, luminescence/redox ratio | activity score, % at 18.7 µM;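 active = replicate mean at a twofold rise or more, about +100% in these data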;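 also: firefly luciferase made from a UUG start codon reports start codon fidelity; reporter light over untreated wells divided by growth signal over untreated wells; some hits fall short of that in this replicate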
MT1-MMP act inh: inhibitors of human MT1-MMP activation | P50281 | HT1080 RFP-PRO-GFP cells, GFP/RFP ratio fluorescence, overnight; percent of plate control window, DMSO zero | GFP/RFP ratio change, % at 20 µM | actives 0.061% (n = 360,000) | AID 651647;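 active = GFP/RFP ratio change of at least 30% with cell ATP level not reduced by more than half and red fluorescence within 50% of control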; also: strong numbers were not always called active
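Assay system: HT1080 cells carrying an RFP-PRO-GFP reporter | Dosing: Single dose of 20 µM compound, 1% DMSO final | Incubation: Cells overnight before dosing, compound overnight, 37 °C, 5% CO2 | Evaluation: GFP/RFP fluorescence ratio | Control set: DMSO and RFP-L50D-GFP cell wells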
eIF4H FP inh: inhibitors of RNA binding by human eIF4H | inhibition, % at 35 µM | eIF4H fluorescence polarization binding assay | actives 0.94% (n = 290,000);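 active = 50% or more with normal probe brightness, or confirmed in later tests; inconclusive = above 50% with abnormal brightness, or retests that disagree; inactive = below 50% or failed in later tests; about a fifth of its hits are not listed in these tables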;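 also: calls also rest on retests at 20 µM and on dose response follow-up; 0% = protein and probe with vehicle and 100% = probe without protein; strong numbers were not always called active; many hits fall short of the cut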
PABP FP inh: PABP-poly(A) binding inhibition; P11940; inhibition, % at 35 µM; AID 2014; PABP-poly(A) RNA binding, fluorescence polarization; actives 1% (n = 290,000);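 active = 50% or more with normal probe brightness, or confirmed in later tests; inconclusive = above 50% with abnormal brightness, or retests that disagree; inactive = below 50% or failed in later tests; about a fifth of its hits are not listed in these tables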;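 also: calls also rest on retests at 20 µM and on dose response follow-up; controls were probe without protein and protein plus probe with vehicle; some compounds called inactive have numbers as strong as hits; many hits fall short of the cut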
eIF4H FP inh retest: recorded beside eIF4H FP inh, whose call it bears; inhibition, %; compound at 20 µM; confirmation average;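 mean of two retest wells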
PABP FP inh retest: also measured in PABP FP inh; calls as there; inhibition, %; compound at 20 µM; confirmation repeats;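 mean of two retest wells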
MT1-MMP act inh RFP: also measured in MT1-MMP act inh; calls as there; RFP signal change, %; measured here: RFP expression control read;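 0 = vehicle wells; hits needed this value within 50% of zero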
Numbers without * were called inactive; i = inactive; ? = inconclusive; . = not tested or not shown. Not all compounds are listed. The share of hits here may be higher or lower than overall.

SMILES	HIV Env fusion	Rce1 inh	CSC inhib	UUG fidelity	MT1-MMP act inh	MT1-MMP act inh RFP	eIF4H FP inh	PABP FP inh	others
CC(C)(C)C1CCC2(CC1)Nc1cccc3cccc(c13)N2	-5.1	i	-9.6	-5.0	6.3	-1.8	101.2	66.7	eIF4H FP inh retest=0.8;PABP FP inh retest=5.0
CCOc1cc(/C=N/NC(=O)CN2CCCCC2)ccc1OCc1ccc(Cl)cc1	.	i	15.8	.	-1.5	-2.0	-9.2	-11.2
Cn1c(-c2cccs2)nc2ccccc21	-65.8	i	-0.6	-4.4	-4.5	-2.6	-7.4	-8.6
Cc1cc(=O)[nH]c(N/N=C/c2c(C)nn(-c3ccccc3Cl)c2Cl)n1	6.6	.	14.8	.	-0.3	-2.7	4.7	-10.4
CSc1ccccc1C(=O)NC1CCCCC1	-11.8	i	2.6	.	-0.5	5.2	-3.0	-0.8
CC(=O)c1c(C)[nH]c(C(=O)OCC(=O)C(C)(C)C)c1C	.	i	-8.6	.	6.1	4.6	-2.9	-6.9
CN(C)C(CNC(=O)C1CCN(C(=O)/C=C/c2ccccc2)CC1)c1ccccc1 (stereo not given)	-23.7	i	-14.5	-21.7	-0.6	0.9	2.9	3.9
CC(C)c1ccc(C(=O)N/N=C/c2cccc(Cl)c2Cl)cc1	.	i	-13.2	-19.7	-1.5	0.7	1.9	9.5
COc1ccc(S(=O)(=O)NCc2cn3c(C)csc3n2)cc1F	8.4	i	-9.5	3.6	-8.6	0.0	0.7	4.9
CSC1=NC(C(Cl)(Cl)Cl)N=C(c2ccccc2)N1 (stereo not given)	3.9	i	39.8	.	0.9	4.8	-5.7	11.3
NC(=O)CC(NC(=O)c1ccc(Br)cc1)c1ccc(NC2CCCCCCC2)c([N+](=O)[O-])c1 (stereo not given)	4.4	i	44.6	-14.2	19.3	-0.2	11.7	-8.7
Cc1cccc(C2CC(c3ccc(Cl)cc3)Nc3nc(N)nn32)c1 (stereo not given)	-4.9	i	.	-10.4	0.4	5.9	5.5	-6.5
CCOCCCNC(=O)c1ccc2c(c1)ncn2C1CCCC1	.	i	-11.5	-27.2	3.3	2.2	-4.4	1.5
CC(/C=C/c1ccccc1F)=N\NC(=O)C(C)C	-65.9	i	8.0	-2.4	0.6	2.9	0.2	-11.3
CCCOc1cccc(C(=O)NCCNC(=O)c2cnccn2)c1	3.4	i	.	-19.5	3.9	3.6	-4.8	2.0
O=C(O)c1ccc(COc2ccc3c4c(c(=O)oc3c2)CCC4)o1	14.2	i	1.7	.	-1.3	-5.0	19.0	8.0
Cc1ccccc1Cn1nnc(-c2ccc(C(=O)O)cc2)n1	-6.0	i	.	.	2.2	2.8	-8.1	-0.1
COc1ccc(C(=O)OCC(=O)NC(Cc2ccccc2)C(C)=O)cc1S(=O)(=O)N1CCCC1 (stereo not given)	6.1	.	.	-11.2	-1.5	-0.6	.	.
Cc1ccc(-c2nsc(SCC(=O)NCc3ccc4c(c3)OCO4)n2)cc1	12.6	i	-1.1	.	3.2	3.2	-4.9	-5.5
O=C(O)c1c(NC(=O)N(CCO)Cc2ccccc2)sc2c1CCCC2	-5.2	i	.	-22.1	-1.6	-0.4	-4.6	13.7
Cc1ccc(C[n+]2ccccc2)cc1	7.3	i	-2.7	-16.1	4.0	-1.6	.	.
COc1ccc(NC(=O)CSc2nc3c(c(=O)n2-c2ccccc2)SCC3)c(OC)c1	-25.5	i	-13.5	-16.3	-0.9	-6.8	-4.8	2.5
N#Cc1nnn(Cc2ccccc2)c1N	2.1	i	.	.	2.2	7.7	6.4	-0.5
O=c1c(Cl)c(NCc2ccccc2)cnn1C12CC3CC(CC(C3)C1)C2	.	i	76.8*	.	1.2	-0.3	0.1	8.7
Cn1c(=O)oc2cc(S(=O)(=O)CCC(=O)N3CCN(c4ccccc4F)CC3)ccc21	0.9	i	28.3	-8.0	.	.	-1.6	-0.4
Cc1cc(C)cc(OCC(=O)N2Cc3ccccc3CC2C(=O)O)c1 (stereo not given)	14.9	i	2.6	6.7	1.3	7.1	18.7	-0.2
CC1(C(=O)Nc2ccc(F)c(Cl)c2)Cc2c(-c3ccc(C(N)=O)cc3)ccnc2O1 (stereo not given)	6.1	.	.	-9.4	-1.9	-1.5	.	.
COc1ccccc1NC(=O)CSc1nnc2ccc(-c3cccnc3)nn12	11.8	i	-4.4	-21.2	-3.4	-0.5	-5.3	4.4
COc1cccc(-n2c(C)cc(/C=C3/C(=N)N4C(=NC3=O)SN=C4S(C)(=O)=O)c2C)c1	1.3	i	9.8	-3.5	-16.4	6.4	?	-6.1
CCNc1oc(-c2cccc3ccccc23)nc1C#N	.	i	-3.0	-25.0	-0.1	1.4	4.4	-5.8
COc1ccc(OCCSc2nc(-c3ccccc3)cc(=O)[nH]2)cc1	18.2	i	-9.4	-5.4	0.7	-2.4	-9.3	-13.5
Cn1cc(CCC(=O)N2CCCC(CCC(=O)NCc3ccccc3F)C2)cn1 (stereo not given)	6.8	i	-14.3	-0.1	.	.	-0.5	1.7
NS(=O)(=O)c1ccc(CCNC(=O)COC(=O)CCc2ccccc2)cc1	-10.8	i	-4.8	9.4	-2.0	-3.0	-3.5	0.8
COC(=O)C1C(c2ccc(OC)c(OC)c2)NC(c2ccc(OC)c(OC)c2)C(C(=O)OC)S1(=O)=O (stereo not given)	.	i	-7.0	.	1.7	-1.6	-7.4	-4.3
CCOC(=O)c1[nH]ncc1CN1CCCC(C(=O)c2cccc(OC(C)C)c2)C1 (stereo not given)	-1.3	i	-13.1	-9.1	-0.5	1.3	-5.2	-7.7
COC(=O)c1c(C#N)c(N)nc2c1CCC2	.	i	-11.4	3.7	-1.6	-1.3	-4.9	2.4
COc1ccc(NC(=O)CSc2nc3[nH]ncc3c(=O)n2-c2ccccc2C)cc1OC	-53.0	i	.	.	-0.7	0.8	-3.5	1.5
CCN(CC(=O)Nc1c(F)cccc1F)C(=O)Cc1cccs1	8.2	.	.	-12.6	-2.8	-2.6	.	.
CCOC(=O)C1=C(O)C(=O)N(c2ccc(S(N)(=O)=O)cc2)C1c1ccc(OC)cc1OC (stereo not given)	-6.5	i	-13.7	-22.9	-5.7	3.8	-3.1	4.5
O=C(N/N=C/c1c[nH]c2ccccc12)c1ccncc1	-23.3	i	-10.6	.	6.6	1.9	-9.0	-0.5
Cc1nn2c(=O)cc(CSc3ccccc3NC(=O)c3ccccc3F)nc2s1	10.6	i	-21.5	-9.8	2.8	6.2	-1.1	13.0
Cc1ccc(S(=O)(=O)N/N=C/c2ccc(OC3CSC3)cc2)cc1	.	i	27.3	-8.7	0.1	-4.3	-0.8	-4.3
Cc1cccc(OCC(=O)NNc2c3ccccc3nc3ccccc23)c1	.	i	6.9	-13.5	24.3	-14.7	-4.3	-14.5
O=S(=O)(NCC(O)c1ccccc1)c1cc(Cl)sc1Cl (stereo not given)	-2.3	i	-0.8	-4.9	2.5	1.3	-11.2	7.6
CCOC(=O)c1ccccc1NC1c2ccccc2C(=O)N1C1CCN(C(=O)OCC)CC1 (stereo not given)	-13.7	i	16.1	-6.9	-1.2	-6.0	-10.1	-26.0
Nc1nc(Sc2ccc([N+](=O)[O-])cc2[N+](=O)[O-])n[nH]1	-10.8	i	4.2	.	1.7	-2.4	-4.2	-4.5
CCc1cccc(NC(=O)COC(=O)c2cc([N+](=O)[O-])ccc2N2CCOCC2)c1	7.5	i	20.3	.	-1.4	-9.5	.	.
COc1ccc(OC)c(C2=NOC(C(=O)Nc3cccnc3)C2)c1 (stereo not given)	-36.2	i	-1.6	-20.4	-0.3	-8.0	9.4	-8.4
O=C1c2ccccc2C(=O)N1CCc1c(-c2ccccc2)[nH]c2ccccc12	31.6	.	.	-16.2	-11.4	-5.5	.	.
CN(C(=O)CSc1nc2c(cnn2-c2ccccc2)c(=O)[nH]1)C1CCS(=O)(=O)C1 (stereo not given)	0.3	i	-12.1	.	.	.	11.3	-2.3
Fc1ccccc1C1CC(c2ccco2)=Nc2ccccc2S1 (stereo not given)	-51.8	i	34.0	.	-6.1	-0.7	-2.9	-2.2
Cc1ccc(S(=O)(=O)N(C)C[C@H]2OCCCC[C@@H](C)Oc3ccc(N(C)C)cc3C(=O)N([C@H](C)CO)C[C@@H]2C)cc1	-14.2	.	.	8.9	1.9	0.5	.	.
CCC(C)N(C(=O)COC(=O)c1cc([N+](=O)[O-])ccc1N1CCOCC1)C1CCS(=O)(=O)C1 (stereo not given)	?	i	-16.9	-17.2	3.5	-0.3	.	.
Fc1cccc(F)c1-c1nc(-c2ccncc2)no1	-50.1	i	-10.4	-7.6	-1.7	-1.2	-8.8	-8.8
N#CC12CCCCC1CC1CCCCC1(C#N)N2Cc1ccccn1 (stereo not given)	.	i	1.1	-31.2	1.1	-1.9	-10.4	-16.5
CN1CCN(CCCNC(=O)c2ccc3c(=O)n(CCc4ccccc4)c(=O)[nH]c3c2)CC1	12.6	i	.	-10.2	2.2	1.6	-0.1	9.5
COc1cc(NC(=O)c2ccccc2OCc2ccccc2)cc(OC)c1OC	17.8	i	21.6	-11.3	-4.4	-8.5	-4.9	-4.8
O=C(O)CCc1ccc(-c2cccs2)n1NC(=O)c1ccco1	.	i	-6.9	-23.1	1.3	3.0	27.3	30.8
CC(=O)c1ccc(OC2OCCOC2Oc2ccc(C(C)=O)cc2)cc1 (stereo not given)	11.1	i	7.7	.	3.9	-3.2	5.3	-11.8
COc1cc(OC)cc(C(=O)N[C@@H](CCSC)c2nc3ccccc3[nH]2)c1	2.3	i	10.4	1.2	0.3	0.2	-1.3	-14.2

Structural class, the entries above containing a tert-butyl group
SMILES	HIV Env fusion	Rce1 inh	CSC inhib	UUG fidelity	MT1-MMP act inh	MT1-MMP act inh RFP	eIF4H FP inh	PABP FP inh	others
CC(C)(C)C1CCC2(CC1)Nc1cccc3cccc(c13)N2	-5.1	i	-9.6	-5.0	6.3	-1.8	101.2	66.7	eIF4H FP inh retest=0.8;PABP FP inh retest=5.0
CC(=O)c1c(C)[nH]c(C(=O)OCC(=O)C(C)(C)C)c1C	.	i	-8.6	.	6.1	4.6	-2.9	-6.9

Further entries follow:
SMILES	HIV Env fusion	Rce1 inh	CSC inhib	UUG fidelity	MT1-MMP act inh	MT1-MMP act inh RFP	eIF4H FP inh	PABP FP inh	others
Cc1cccc(C)c1NC(=O)CN(C)C(=O)c1cc(S(=O)(=O)N(C)C)ccc1N1CCCC1	-2.8	i	4.0	-2.1	3.9	2.5	.	.
O=C(CN1C(=O)NC2(CCc3ccccc32)C1=O)NCC(F)(F)F (stereo not given)	-8.4	i	-5.9	-20.6	-0.4	2.7	-9.7	-0.5
COC(=O)c1nnn(-c2nc(N(C)C)nc(N(C)C)n2)c1C	-11.9	.	-3.4	-7.8	8.5	5.9	-3.0	5.3
CC(C)N1CCNCC1	11.8	i	-7.8	.	1.2	2.5	1.2	5.9
CC(C)NC(=O)NC(=O)CSc1nnc(-c2c[nH]c3ccccc23)o1	-6.2	i	6.3	-9.4	1.0	-2.6	0.0	0.0
O=C(Cc1ccccc1)NCc1ccc(F)cc1	.	i	-6.6	.	3.7	3.2	-5.9	-1.3
O=C(c1ccc(C(F)(F)F)cc1)C1CCCN(C(=O)c2cnccn2)C1 (stereo not given)	4.7	i	-5.5	-8.6	.	.	-0.6	2.3
CCCCCCCn1ccc(=N)cc1	.	i	-0.5	.	-8.2	-30.6	0.6*	50.0*	eIF4H FP inh retest=96.1*;PABP FP inh retest=90.1*
